FGF22 binding: FGF22 (human) thermal shift binding; Q9HCT0; recombinant FGF22 thermal shift, SYPRO orange fluorescence; percent of sucrose octasulfate shift, DMSO zero; calls only at 9.99 µM; hit rate 1.5% among 340,000;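 active means melting point raised past a set limit in the mean and every replicate; three in four hits are not shown here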
Target sequence (Q9HCT0 whole entry, looked up): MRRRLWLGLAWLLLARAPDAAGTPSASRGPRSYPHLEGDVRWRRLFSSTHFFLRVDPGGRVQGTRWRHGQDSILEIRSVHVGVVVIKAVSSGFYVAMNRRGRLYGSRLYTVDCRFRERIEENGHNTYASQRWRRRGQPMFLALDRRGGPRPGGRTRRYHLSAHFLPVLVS
AF4-AF9 inh: inhibitors of human MLL-AF4/AF9 interaction. AlphaScreen, biotin-AF4 peptide binding to FLAG-AF9. hit rate 0.47% among 350,000. P42568. inhibition, % at 10 µM;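 active means every replicate reaching a set inhibition limit, whatever the replicate mean, cut at about 25% in these data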;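 further: 0% = plate neutral control median and 100% = total signal loss; the record names both 10 and 1 µM as test concentration; the first replicate is given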
Target sequence (P42568 whole entry, looked up): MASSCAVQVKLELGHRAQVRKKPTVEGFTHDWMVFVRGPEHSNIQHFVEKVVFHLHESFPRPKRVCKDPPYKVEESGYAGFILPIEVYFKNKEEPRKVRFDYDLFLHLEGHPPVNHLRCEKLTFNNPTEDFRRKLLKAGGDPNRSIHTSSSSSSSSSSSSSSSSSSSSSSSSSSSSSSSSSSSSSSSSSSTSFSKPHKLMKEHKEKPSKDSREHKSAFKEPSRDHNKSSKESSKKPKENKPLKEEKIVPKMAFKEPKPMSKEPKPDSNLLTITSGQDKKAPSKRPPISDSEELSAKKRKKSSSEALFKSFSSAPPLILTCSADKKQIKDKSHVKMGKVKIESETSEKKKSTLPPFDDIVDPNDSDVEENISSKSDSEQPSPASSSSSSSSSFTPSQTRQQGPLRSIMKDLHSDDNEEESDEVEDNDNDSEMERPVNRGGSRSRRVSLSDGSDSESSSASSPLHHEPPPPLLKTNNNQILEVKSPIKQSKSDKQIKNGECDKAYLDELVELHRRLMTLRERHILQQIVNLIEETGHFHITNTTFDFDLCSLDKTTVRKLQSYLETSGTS
The depositor's hits bear a star; i = inactive.

SMILES	FGF22 binding	AF4-AF9 inh
CC(C)NC(=O)N(C)C[C@H]1OCCCC[C@H](C)Oc2ccc(NC(=O)c3ccncc3)cc2C(=O)N([C@H](C)CO)C[C@@H]1C	i	-14
CCCNC(=O)Nc1ccc2c(c1)OC[C@H](C)N(Cc1ccccc1)C[C@H](C)[C@@H](OC)CN(C)C2=O	i	1.5
CO[C@@H]1CN(C)C(=O)c2cc(NC(=O)CC(F)(F)F)ccc2OC[C@H](C)N(S(=O)(=O)c2cn(C)cn2)C[C@H]1C	i	-3.1
COc1ccc(CN(C)C[C@H]2Oc3ccc(NS(=O)(=O)c4ccccc4)cc3CC(=O)N([C@@H](C)CO)C[C@@H]2C)cc1	i	1.1
Cc1noc(C)c1S(=O)(=O)N(C)C[C@H]1Oc2ccc(NC(=O)Nc3ccc4c(c3)OCO4)cc2C(=O)N([C@@H](C)CO)C[C@H]1C	i	19
COc1ccccc1-c1ccc2c(c1)O[C@@H](CN(C)C(=O)Nc1ccccc1)[C@@H](C)CN([C@H](C)CO)S2(=O)=O	i	-12
COc1cccc(-c2ccc([C@H]3[C@H]4CN(C(=O)NC(C)C)CC(=O)N4[C@H]3CO)cc2)c1	i	1.6
O=C(C[C@H]1C[C@@H]2c3cc(NC(=O)NC4CCCC4)ccc3O[C@@H]2[C@@H](CO)O1)NCCc1ccccc1	i	-1.6
C[C@@H]1CCCCO[C@H](CN(C)S(=O)(=O)c2ccc(Cl)cc2)[C@@H](C)CN([C@H](C)CO)C(=O)c2cc(NS(=O)(=O)c3cn(C)cn3)ccc2O1	i	-3.6
O=C(Cc1cccnc1)N[C@@H]1CC[C@@H](CCNS(=O)(=O)c2ccccc2Cl)O[C@H]1CO	i	4.5
CCCN1[C@@H]2c3ccc(-c4ccccc4F)c(=O)n3C[C@@H]2[C@@H](CO)[C@@H]1C(=O)N1CCN(C)CC1	i	-0.8
CN1C(=O)c2cc(NC(=O)Cc3cccs3)ccc2OC[C@@H]2O[C@H](CC(=O)NCc3ccc(-c4ccccc4)cc3)CC[C@@H]21	i	-9.5
C[C@H](O)C#Cc1ccc2c(c1)O[C@H](CN(C)Cc1cccnc1)[C@H](C)CN([C@@H](C)CO)S2(=O)=O	i	-4.2
CO[C@H](CN(C)S(=O)(=O)c1ccccc1)[C@@H](C)CN(Cc1ccccc1Cl)[C@@H](C)CO	i	2.6
C[C@H]1CN([C@@H](C)CO)C(=O)c2cc(NC(=O)C3CCCCC3)ccc2O[C@H]1CN(C)Cc1ccncc1	i	0.7
COCC#Cc1cnc2c(c1)C(=O)N([C@@H](C)CO)C[C@H](C)[C@@H](CN(C)C(=O)Nc1ccccc1OC)O2	i	-9.4
C[C@@H]1CN([C@@H](C)CO)C(=O)c2c(c3ccccc3n2C)-c2ccccc2CO[C@@H]1CN(C)C(=O)Nc1ccc(F)cc1	i	3.3
C[C@@H]1CN([C@H](C)CO)C(=O)Cc2cc(NC(=O)C3CCCCC3)ccc2O[C@@H]1CN(C)C(=O)Nc1ccc(C(F)(F)F)cc1	i	-1.8
O=C(Nc1ccc(F)cc1)N1CC(=O)N2[C@H](CO)[C@H](c3ccc(-c4cccc(F)c4)cc3)[C@H]2C1	i	-8.8
CN(C)C(=O)c1cccc(-c2ccccc2[C@@H]2[C@@H](C#N)N(C(=O)C3CC3)[C@@H]2CO)c1	i	0.9
O=C(O)C[C@H]1CC[C@H]2[C@@H](COC[C@H](O)CN2S(=O)(=O)c2ccc(F)cc2)O1	i	0.4
CC(=O)N1[C@@H]2c3cccc(=O)n3C[C@@H]2[C@@H](CO)[C@@H]1C(=O)N[C@@H](C)c1ccccc1	i	-0.8
O=C(Nc1cccc(Cl)c1)N[C@@H]1CC[C@@H](CCNC(=O)C2CCCCC2)O[C@@H]1CO	i	-1.2
COc1ccc2c3c([nH]c2c1)[C@@H](CO)N(S(=O)(=O)c1cn(C)cn1)CC31CCN(CC2CCCC2)CC1	i	3.1
CCCN1C[C@H](C)[C@@H](OC)CN(C)C(=O)c2cc(NC(=O)c3ccccc3F)ccc2OC[C@H]1C	i	-1.9
COC(=O)c1cc2c(c3c4cc(F)ccc4n(S(=O)(=O)c4ccccc4)c13)C(=O)N(Cc1ccc(C(F)(F)F)cc1)C2	i	-1.2
COc1ccc2c3c([nH]c2c1)[C@H](CO)N(C(=O)C1CCCCC1)CC31CN(C(=O)NC(C)C)C1	i	0.1
CN(C)C(=O)c1ccc(-c2ccc([C@H]3[C@@H](C#N)N(C(=O)C4CCC4)[C@H]3CO)cc2)cc1	i	2.0
O=S(=O)(Cc1ccccc1)N1CCCCN2[C@H](CO)[C@@H](c3ccc(-c4cncnc4)cc3)[C@H]2C1	i	-3.1
CCC(=O)Nc1ccc2c(c1)C(=O)N(C)[C@H]1CC[C@@H](CC(=O)NCc3ccccc3Cl)O[C@H]1CO2	i	-0.5
O=C(NCC1CC1)[C@H]1[C@H](CO)[C@H]2Cn3c(cccc3=O)[C@@H]1N2C(=O)c1ccc(F)cc1	i	-1.5
CC=Cc1ccc2n(c1=O)C[C@@H]1[C@@H](CO)[C@H](C(=O)NCC3CCCCC3)[C@H]2N1C(C)=O (mixture of isomers)	i	-9.2
C[C@H](CO)N1C[C@H](C)[C@H](CN(C)C(=O)c2ccncc2)OCCCC[C@H](C)Oc2ccc(NS(=O)(=O)c3ccc(Cl)cc3)cc2C1=O	i	-2.8
CC1(C)OC(=O)C2=C(CC(CCc3ccccc3)OC2CCc2ccccc2)O1 (stereo not given)	i	-1.5
COc1ccc(NC(=O)Nc2ccc3c(c2)C(=O)N([C@H](C)CO)C[C@H](C)[C@@H](CN(C)S(=O)(=O)c2ccccc2)OCCCC[C@@H](C)O3)cc1	i	4.6
C[C@@H]1CN([C@@H](C)CO)S(=O)(=O)c2ccc(C3=CCCCC3)cc2O[C@@H]1CN(C)Cc1cccnc1	i	10
C[C@@H]1CN([C@H](C)CO)C(=O)c2cccc(NC(=O)C3CCCCC3)c2O[C@H]1CN(C)Cc1ccc(C(=O)O)cc1	i	-2.0
O=C(C[C@@H]1CC[C@H]2[C@@H](COC[C@@H](O)CN2C(=O)c2ccccc2)O1)Nc1nccs1	i	0.9
CC(C)CC#Cc1cnc2c(c1)C(=O)N([C@H](C)CO)C[C@H](C)[C@H](CN(C)Cc1ccccc1F)O2	i	-2.9
C[C@@H]1CN([C@@H](C)CO)C(=O)Cc2cc(NS(=O)(=O)c3cn(C)cn3)ccc2O[C@@H]1CN(C)Cc1ccc(C(=O)O)cc1	i	-2.0
C[C@H]1CN([C@@H](C)CO)C(=O)c2cc(Br)cnc2O[C@@H]1CN(C)Cc1ccccn1	i	-1.0
C[C@@H]1CN([C@@H](C)CO)C(=O)c2cc(NC(=O)Nc3ccc4c(c3)OCO4)ccc2O[C@@H]1CN(C)S(=O)(=O)c1cccs1	i	2.1
COC(=O)[C@]12C[C@H](CC(=O)NCc3ccccc3)C(=O)N(Cc3ccccc3)C1=C[C@H](C(C)C)O[C@@H]2C1CC1	i	-0.9
C[C@@H]1CN([C@@H](C)CO)C(=O)c2cc(NC(=O)C3CC3)ccc2O[C@H]1CN(C)C(=O)Nc1ccccc1	i	-3.5
C[C@@H]1CN([C@H](C)CO)C(=O)c2c(c3ccccc3n2C)-c2ccccc2CO[C@H]1CN(C)Cc1cccc(O)c1	i	2.1
C[C@H](CO)N1C[C@H](C)[C@@H](CN(C)Cc2ccc(C(=O)O)cc2)Oc2ncc(-c3ccc(F)cc3)cc2C1=O	i	-2.2
CCCNC(=O)N1[C@@H](CO)[C@@H](c2ccccc2)C12CN(C(=O)CC1CC1)C2	i	-1.2
COc1ccccc1-c1cn(CC[C@H]2CC[C@@H](NC(=O)CCN3CCCCC3)[C@@H](CO)O2)nn1	i	2.1

Entries of single compounds from above. Order of values: FGF22 binding, AF4-AF9 inh
Entry for `COC(=O)[C@]12C[C@H](CC(=O)NCc3ccccc3)C(=O)N(Cc3ccccc3)C1=C[C@H](C(C)C)O[C@@H]2C1CC1` : i, -0.9
Entry for `O=C(C[C@@H]1CC[C@H]2[C@@H](COC[C@@H](O)CN2C(=O)c2ccccc2)O1)Nc1nccs1` : i, 0.9

The list goes on:
SMILES	FGF22 binding	AF4-AF9 inh
C[C@H]1CCCCO[C@@H](CN(C)C(=O)C2CCCCC2)[C@@H](C)CN([C@@H](C)CO)C(=O)c2cc(NC(=O)Nc3ccccc3)ccc2O1	i	2.8
COc1ccc(NC(=O)Nc2cccc3c2O[C@@H](CN(C)S(=O)(=O)c2ccc(OC)cc2)[C@H](C)CN([C@H](C)CO)C3=O)cc1	i	1.1
CO[C@H]1CN(C)C(=O)c2ccc(NS(=O)(=O)c3ccccc3Cl)cc2OC[C@@H](C)NC[C@@H]1C	i	-3.0
O=C(Nc1ccccc1)N1CCCCN2[C@@H](CO)[C@H](c3ccc(C#Cc4cccnc4)cc3)[C@@H]2C1	i	1.5
COc1ccc2c3c([nH]c2c1)[C@H](CO)N(C(=O)C1CCCCC1)CC31CCN(C(=O)c2ccncc2)CC1	i	1.2
Cc1noc(C)c1NC(=O)Nc1ccc2c(c1)C(=O)N([C@@H](C)CO)C[C@H](C)[C@@H](CN(C)CC1CC1)OCCCC[C@H](C)O2	i	-4.4
CC(C)C#Cc1cnc2c(c1)C(=O)N([C@H](C)CO)C[C@@H](C)[C@@H](CN(C)Cc1cncnc1)O2	i	-4.2
CC(C)NC(=O)N1[C@H](CN(C)C(=O)c2ccncc2)[C@@H](c2ccccc2)[C@@H]1CO	i	-2.1
CCC(=O)N1CC2(CN(C(=O)Nc3c(C)noc3C)C2)c2c([nH]c3cc(OC)ccc23)[C@H]1CO	i	1.5
C[C@@H]1CN([C@@H](C)CO)C(=O)c2cc(NS(=O)(=O)c3ccc(Cl)cc3)ccc2O[C@@H](C)CCCCO[C@H]1CN(C)C(=O)CCCN(C)C	i	3.4
COc1ccc(S(=O)(=O)Nc2ccc3c(c2)CC(=O)N([C@@H](C)CO)C[C@@H](C)[C@H](CN(C)Cc2ccncc2)O3)cc1	i	1.6
C[C@H]1CCCCO[C@@H](CN(C)C(=O)Nc2ccc3c(c2)OCO3)[C@@H](C)CN([C@@H](C)CO)C(=O)c2cc(NC(=O)c3ccccc3)ccc2O1	i	0.4
C[C@@H]1CN([C@H](C)CO)C(=O)c2cc(NS(=O)(=O)c3ccc(F)cc3)ccc2O[C@@H]1CN(C)C(=O)Nc1ccc2c(c1)OCO2	i	3.0
C[C@@H]1CCCCO[C@@H](CN(C)C(=O)Nc2ccc(F)cc2)[C@@H](C)CN([C@H](C)CO)C(=O)c2cc(NS(=O)(=O)c3ccccc3)ccc2O1	i	-1.5
COc1ccc2c3c([nH]c2c1)[C@H](CO)N(C(=O)CN1CCOCC1)CC31CCN(C(C)=O)CC1	i	-2.6
CO[C@@H]1CC[C@@H]2CCOc3ccc(C#N)cc3C(=O)N(C)C[C@@H](C)C(=O)N(C)C[C@H]1O2	i	3.3
C[C@@H]1CCCCO[C@H](CN(C)S(=O)(=O)c2cccs2)[C@@H](C)CN([C@H](C)CO)C(=O)c2cc(NS(C)(=O)=O)ccc2O1	i	-1.4
O=C(C[C@@H]1CC[C@H]2[C@@H](COC[C@H](O)CN2C(=O)Nc2ccc(Cl)c(Cl)c2)O1)NCc1ccccc1	i	0.0
Cc1ccc(S(=O)(=O)NCC[C@@H]2CC[C@H](NC(=O)c3ccccn3)[C@@H](CO)O2)cc1	i	1.1
C[C@@H]1CCCCO[C@@H](CN(C)C(=O)CCC(F)(F)F)[C@@H](C)CN([C@H](C)CO)C(=O)c2cc(NC(=O)NC3CCCCC3)ccc2O1	i	-2.3
CCCNC(=O)N(C)C[C@H]1Oc2cc(-c3ccncc3)ccc2S(=O)(=O)N([C@@H](C)CO)C[C@H]1C	i	-4.8
CCNC(=O)C[C@H]1CC[C@H](NC(=O)C2CCC2)[C@H](CO)O1	i	-1.3
COc1ccccc1NS(=O)(=O)c1cc(C(=O)NC2CCN(Cc3ccccc3)CC2)ccc1C	i	7.9
O=C(C[C@H]1C[C@H]2c3cc(NC(=O)CC4CC4)ccc3O[C@H]2[C@@H](CO)O1)NCCc1ccccc1	i	0.4

Retrieved one by one from the list above, 7 records:
SMILES	FGF22 binding	AF4-AF9 inh
CO[C@@H]1CC[C@@H]2CCOc3ccc(C#N)cc3C(=O)N(C)C[C@@H](C)C(=O)N(C)C[C@H]1O2	i	3.3
COc1ccccc1NS(=O)(=O)c1cc(C(=O)NC2CCN(Cc3ccccc3)CC2)ccc1C	i	7.9
C[C@@H]1CCCCO[C@@H](CN(C)C(=O)CCC(F)(F)F)[C@@H](C)CN([C@H](C)CO)C(=O)c2cc(NC(=O)NC3CCCCC3)ccc2O1	i	-2.3
CCCNC(=O)N(C)C[C@H]1Oc2cc(-c3ccncc3)ccc2S(=O)(=O)N([C@@H](C)CO)C[C@H]1C	i	-4.8
Cc1ccc(S(=O)(=O)NCC[C@@H]2CC[C@H](NC(=O)c3ccccn3)[C@@H](CO)O2)cc1	i	1.1
C[C@@H]1CCCCO[C@H](CN(C)S(=O)(=O)c2cccs2)[C@@H](C)CN([C@H](C)CO)C(=O)c2cc(NS(C)(=O)=O)ccc2O1	i	-1.4
COc1ccc2c3c([nH]c2c1)[C@H](CO)N(C(=O)CN1CCOCC1)CC31CCN(C(C)=O)CC1	i	-2.6

Other structures.
SMILES	FGF22 binding	AF4-AF9 inh
CNC[C@H]1OCCCC[C@@H](C)Oc2ccc(NC(=O)CCC(F)(F)F)cc2C(=O)N([C@@H](C)CO)C[C@H]1C	i	-4.2
Cc1cc(C(=O)Nc2cccc3c2O[C@@H](CN(C)C(=O)Nc2ccc(F)cc2)[C@@H](C)CN([C@H](C)CO)C3=O)n(C)n1	i	-1.6
C[C@@H]1CN([C@@H](C)CO)C(=O)c2cc(/C=C/c3ccccc3)cnc2O[C@H]1CN(C)C(=O)CN(C)C	i	5.3
Cc1noc(C)c1NC(=O)Nc1cccc2c1O[C@@H](CN(C)C(=O)NC(C)C)[C@@H](C)CN([C@H](C)CO)C2=O	i	-2.6

A portion of the library, so the mix of outcomes need not match the whole.
